Screens: PubChem, Fisher Drug Discovery Resource Center
NPYLR7 ag: activates Aedes aegypti NPYLR7 receptor; activation, % at 10 µM; HEK293T NPYLR7/Galpha15, GCaMP6s calcium fluorescence; hit rate 0.15% among 270,000; AID 1259423; in the data active means activation above about 40%;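 further: 0% = vehicle and 100% = reference agonist at the receptor; some compounds past the cut are filed as inactive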
NPYLR7 ag max-min: also measured in NPYLR7 ag; calls as there; activation, %; measured here: Max-Min RFU normalised activation; some inactives read as strong as hits;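 span of the calcium signal over five minutes; 0% = vehicle and 100% = native peptide agonist; compound fluorescence can raise it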
* marks the source's active call; other numbers are inactive results.

molecule	NPYLR7 ag max-min	NPYLR7 ag
COc1ccc2nc(-c3cccc(NS(=O)(=O)c4cccc(Cl)c4Cl)c3)cn2n1	-7	-3
Cc1ccc(NCN2C(=O)c3cccc([N+](=O)[O-])c3C2=O)nc1	-19	-10
COC(=O)CCC(=O)N1CCc2ccccc2C1c1ccc(F)cc1 (configuration not stated)	5	-6
CCCn1c(=O)c(-c2cccs2)nc2c1c(=O)[nH]c(=O)n2Cc1ccccc1	1	8
Cn1cccc1CN(Cc1ccc(F)cc1)CC(O)COCc1ccccc1 (configuration not stated)	16	12
C=CCOc1cccc(C2c3c(oc4ccc(C)cc4c3=O)C(=O)N2c2nccs2)c1 (configuration not stated)	2	4
Cc1cccc(N2CC(C)Cn3c2nc2c3c(=O)n(CCN3CCCCC3)c(=O)n2C)c1 (configuration not stated)	9	14
COCCn1c(=NC(=O)CS(=O)(=O)c2ccc(OC)cc2)sc2cc(F)cc(F)c21	1	3
COC(=O)C(c1ccccc1F)C1C=CC(NC(=O)c2ccc(F)cc2F)C1 (configuration not stated)	5	6
O=[N+]([O-])c1cc(C(F)(F)F)cc([N+](=O)[O-])c1N1CCN(CCO)CC1	1	1
COc1ccc(/C=C(/C#N)c2nccn2CC(F)(F)F)cc1O	5	6
Cc1cccc(C)c1NC(=O)CN(C)C(=O)CN1CCc2ccccc21	-2	-2
CCc1ccc2oc(-c3ccc(NC(=O)c4ccc(C)c([N+](=O)[O-])c4)cc3)nc2c1	-9	1
Cc1ccc2nc(-c3cccc(NC(=O)c4cccc(F)c4)c3)oc2c1	-11	-8
O=C1CC(C(=O)N2CCN(S(=O)(=O)c3ccc(F)cc3F)CC2)c2ccc(F)cc2N1 (configuration not stated)	5	0
CC1(C(=O)NS(=O)(=O)c2cccc(Cl)c2)CCN1C(=O)CCc1cccs1 (configuration not stated)	-9	-1
Cc1nn(-c2ccccc2)nc1C(=O)NC1CCCCC1C (configuration not stated)	4	3
CC(C)c1cc(C2CCN(Cc3ccc(C4CCCCO4)o3)CC2)[nH]n1 (configuration not stated)	-4	-1
COc1ccccc1C(=O)N1N=C(C)CC1(O)C(F)(F)F (configuration not stated)	4	15
Cc1cnc(C)c(N2CCN(Cc3ccc4cccc(O)c4n3)CC2)n1	-8	0
O=C(Nc1ccc(C2SCC(=O)N2c2ccc3c(c2)OCO3)cc1)c1cccc(Cl)c1 (configuration not stated)	2	0
CNC(=O)C(C)(C)N(C)C(=O)c1ccccc1N1CCOCC1	-3	2
COc1ccc(CCN(C)C2CCCN(c3ccnc(N)n3)C2)cc1OC (configuration not stated)	12	20
C[C@H](NC[C@H](O)CP(=O)(O)CC1CCCCC1)c1ccc(Cl)c(Cl)c1	5	6
CC(C(=O)Nc1ccccc1)S(=O)(=O)c1ccc([N+](=O)[O-])cc1 (configuration not stated)	-1	3

Entries from the list above with two or more sulfur atoms, in the order listed:
molecule	NPYLR7 ag max-min	NPYLR7 ag
COCCn1c(=NC(=O)CS(=O)(=O)c2ccc(OC)cc2)sc2cc(F)cc(F)c21	1	3
CC1(C(=O)NS(=O)(=O)c2cccc(Cl)c2)CCN1C(=O)CCc1cccs1 (configuration not stated)	-9	-1

Following part
molecule	NPYLR7 ag max-min	NPYLR7 ag
CCN(C(=O)c1cscn1)c1ccccc1S(=O)(=O)CC	1	3
CCC(=O)N1CCCCC1C(=O)N(C)Cc1cccc(C#N)c1 (configuration not stated)	8	0
O=C(Nc1ccc2c(c1)OC1(CCCC1)O2)C1Cc2ccccc2O1 (configuration not stated)	2	4
NC(=O)COC(=O)C12CC3CC(CC(C3)C1)C2	0	-2
CC1CCCCN1c1onc(-c2ccccc2)c1CN(CCN(C)C)C(=O)c1ccco1 (configuration not stated)	7	4
O=c1ccc(-c2ccc(F)cc2)nn1Cc1ccccc1F	0	1
COc1ccc(CC2CCN(C(=O)Nc3cccc(C(C)=O)c3)CC2)cc1	13	4
CCOC(=O)c1cc(-c2cccc(NC(=O)c3ccc(Cl)nc3)c2)n(-c2ccccc2F)n1	19	34
O=C(NCCc1cccs1)Nc1cccc(N2CCNC2=O)c1	1	1
COC(=O)c1c(O)cc(C(C)(C)C)n(-c2ccc(F)cc2)c1=O	11	6
Cc1ccc(C)c(NC(=O)N2CCN(c3nc(C)cc(Nc4ccccc4)n3)CC2)c1	4	10
Cc1nn(C)c(C)c1C(=O)NCC(C)(C)N1CCCC(C)C1 (configuration not stated)	5	7
CCN(Cc1nccs1)Cc1cc(Cl)ccc1OC	5	8
CCC(Oc1cccc(I)c1)C(=O)Nc1cc(C)on1 (configuration not stated)	-5	-2
O=C(CN1C(=O)c2cccc3cccc1c23)Nc1ccc(Cl)cc1F	0	7
COc1ccc(-c2csc(=Nc3ccccc3C(F)(F)F)n2NC(=O)CNc2ncc(C(F)(F)F)cc2Cl)cc1	-4	1
O=C(CCCn1cc([N+](=O)[O-])cn1)n1cc(Cl)cn1	-2	2
CCc1cccc2c(C(CC(=O)N3CCC4(CC3)OCCO4)c3cccc(C(F)(F)F)c3)c[nH]c12 (configuration not stated)	26	19
O=C(NCc1nnnn1-c1ccc(F)c(F)c1)c1ccc2ccccc2c1	7	15
CCCCCn1c(SCCCO)nc2c1c(=O)[nH]c(=O)n2C	22	1
COC(=O)c1ccc2oc(=O)n(C3CCN(C(=O)c4cccc5c4-c4ccccc4C5=O)CC3)c2c1	14	21
Cc1ccc(C(C)C(=O)N2CCOC(COCc3c(Cl)cccc3Cl)C2)cc1 (configuration not stated)	1	1
Cc1ccc(-c2nc3ccc(C)cn3c2NC(=O)COc2ccccc2)cc1	-1	-6
CCC(=O)N1CCC1(C)C(=O)Nc1cc(OC)ccc1OC (configuration not stated)	-2	-3
CCOC(=O)C(C)Sc1nnc(NC(=O)COCc2ccccc2)s1 (configuration not stated)	26	29
O=C1CC(C(=O)NCC2(c3cccc(C(F)(F)F)c3)CCOCC2)c2ccccc2N1 (configuration not stated)	0	1
O=C(c1cccc2cc[nH]c12)N1C[C@@H]2[C@H](C1)[C@H]1CC[C@@H]2O1	3	6
COc1cc(C)c(S(=O)(=O)NCCC(=O)Nc2ccncc2)cc1OC	-1	0
Cc1cc(I)ccc1N1C(=O)C2C3C=CC(C3)C2C1=O (configuration not stated)	4	6
Cc1cccc(C2(C(=O)N(C)C3CCS(=O)(=O)C3)CCC2)c1 (configuration not stated)	-6	-3
Cc1c(C)n2c3c(=O)n(CCN4CCOCC4)c(=O)n(C)c3nc2n1-c1ccc(F)cc1	-2	-3
Cc1ccc(C)c(NC(=O)CCNCC(=O)Nc2cnccn2)c1	-10	-7
C/C=C/CC(=O)N(Cc1ccsc1)C(CC)CO (configuration not stated)	-1	1
CC(C)Oc1ccc(C(=O)NCc2cccs2)cc1	-6	-6
CCOC(=O)C1CCN(C2CC(=O)N(c3ccc(OC)cc3)C2=O)CC1 (configuration not stated)	0	0
CCn1cc(C(CC(=O)NCCCOC)c2ccc(F)cc2)c2ccccc21 (configuration not stated)	15	19
COc1ccc(C(=O)NC(c2ccc(Cl)cc2)C2CC2)cc1F (configuration not stated)	-2	0
Cc1cc(OC(=O)c2ccccc2C(F)(F)F)c([N+](=O)[O-])c(=O)[nH]1	22	25
COC(=O)[C@H](NC(=O)c1cnn2c1CCCC2)c1ccc(O)cc1	2	4
C/C=C/C(=O)N1CC(=O)N2CCc3c(F)cccc3C2C1 (configuration not stated)	3	4
COc1ccc(S(=O)(=O)Oc2ccccc2CN(Cc2ccco2)C(=O)CC(C)(C)C)cc1	8	1
CC(C)Cn1cnc2c(nnn2C)c1=O	14	0
CCOC(=O)C1(C)CCN1C(=O)CSc1ccccc1 (configuration not stated)	-5	-1
O=C(Nc1nn(Cc2ccc(Oc3ccccc3)cc2)c2ccccc12)c1ccno1	22	20
COc1ccccc1CCC(=O)OCC(=O)NC(c1ccccc1)c1ccccc1	-9	-5
CC(c1cccc(S(N)(=O)=O)c1)N(C)Cc1ccc(Cl)cc1 (configuration not stated)	-28	-30
Cc1nc2c(C)cccn2c(=O)c1NC(=O)CC1CCCCC1	1	-1
Cc1cc(C)n(-c2ccc(N3CCN(S(C)(=O)=O)CC3)nn2)n1	-8	-3
COCCNC(=O)c1csc(COc2c(OC)cccc2OC)n1	2	-1
CCCCN(CC(=O)Nc1c(-c2ccccc2)c(C)nn1-c1ccc(OC)cc1)C(=O)Nc1ccccc1OCC	-1	-2

Next entries.
molecule	NPYLR7 ag max-min	NPYLR7 ag
O=C(Nc1cccc(O)c1)c1cnn2c(C(F)(F)F)cc(-c3ccc(F)cc3)nc12	-13	-8
Cc1ccc(-n2c(-c3ccc(F)cc3)cc(C(=O)N3CCN(C(=O)NCc4ccccc4)CC3)c2C)cc1	-4	-11
COCCCn1c(C(=O)NCc2ccc(C)cc2)cc2c(=O)n(C)c(=O)n(C)c21	-1	0
O=C(OCc1cc(-c2ccc3c(c2)OCCO3)on1)c1c[nH]c2ccccc12	-3	-2
NC(=O)c1cccc(CC2CCN(C(=O)c3cnn4cccnc34)C2)c1 (configuration not stated)	5	6
CCCn1cc(C(=O)Nc2nnc(C(C)C)s2)c2nn(-c3ccccc3)c(=O)c-2c1	16	21
COC(=O)c1ccc2c(c1)CN(C(=O)C1CCN(C(C)=O)CC1)CC2	5	-2
CCn1c(=O)c2c(=O)cc(N)[nH]c2n(Cc2ccccc2)c1=O	0	0
Cc1ccc(C(=O)Nc2c3c(nn2C(C)(C)C)CSC3)cc1	-2	-1
O=C(CSC1=NCCS1)NCc1ccco1	-2	2
CN(c1ccccc1)S(=O)(=O)c1ccccc1C(=O)NC12CC3CC(CC(C3)C1)C2	4	7
CCCCN(Cc1nnc(SC)s1)C1CCS(=O)(=O)C1 (configuration not stated)	2	3
Cc1c(C(=O)OCC(=O)NC(N)=O)oc2ccc(Br)cc12	18	-1
c1cc(CSc2nnc(N3CCOCC3)s2)c2c(c1)OCCO2	-1	-1
CCOC(=O)COc1ccccc1C1CC(c2ccccc2)=NN1C(=O)c1ccco1 (configuration not stated)	-5	-4
Cc1ccccc1NC(=O)Cn1c2c(sc1=O)C1c3ccccc3OCC1CS2 (configuration not stated)	-13	-7
O=C(CCc1nnc(CCc2ccccc2)o1)NCCCC1CCCC1	3	4
Cc1ccc(N=Nc2c(-c3ccc([N+](=O)[O-])cc3)[nH]n(-c3ccccc3)c2=O)c(Br)c1	-20	-15
CCCCc1ccc(C(=O)Nc2ccccc2C2SCC(=O)N2c2cc(C)ccc2OC)cc1 (configuration not stated)	11	5
O=C(NCc1cccnc1)c1coc(CN(Cc2ccc(Cl)c(Cl)c2)C2CC2)n1	10	13
C[C@@H]1[C@H]2C[C@@H](C[C@H]1NC(=O)c1ccc(-n3nc(-c4cccc(Cl)c4)cc3N)cc1)C2(C)C	-6	1
CCN1C(=O)N(CO)C2C1N(CC)C(=O)N2CO (configuration not stated)	5	6
CN(C)Cc1ccc(-c2cc(N)ccn2)cc1	0	2
O=C1OC(c2ccc(F)c(F)c2)=NC1=Cc1cccnc1	3	-1
O=C(Nc1cccc(Cc2ccccc2)c1)Nc1cccc2[nH]c([C@H]3C[C@H](O)[C@@H](CO)O3)nc12	20	18
O=C(CSc1nc(=O)n(CC2CCCO2)c2c1CCC2)Nc1cccc([N+](=O)[O-])c1 (configuration not stated)	-12	-7
Cc1n[nH]c(C)c1Cc1nnc(SCC(=O)O)n1-c1ccccc1Cl	11	6
CC(C)c1ccc(OCC2c3ccsc3CCN2C(=O)CN(CCN2CCCC2)C(=O)NC(C)(C)C)cc1 (configuration not stated)	3	1
Nc1ncnc2nc(-c3ccc(N4CCOCC4)nc3)cc(-c3cccc(Br)c3)c12	7	17
Cc1ccc(C2(O)CCN(S(=O)(=O)c3sccc3C)CC2)nc1	-8	-4
CN(C)C(CNC(=S)NC1CC2CCC1C2)c1ccccc1 (configuration not stated)	2	1

Among those listed so far, these have an NH in an aromatic ring.
molecule	NPYLR7 ag max-min	NPYLR7 ag
CCCn1c(=O)c(-c2cccs2)nc2c1c(=O)[nH]c(=O)n2Cc1ccccc1	1	8
CC(C)c1cc(C2CCN(Cc3ccc(C4CCCCO4)o3)CC2)[nH]n1 (configuration not stated)	-4	-1
CCc1cccc2c(C(CC(=O)N3CCC4(CC3)OCCO4)c3cccc(C(F)(F)F)c3)c[nH]c12 (configuration not stated)	26	19
CCCCCn1c(SCCCO)nc2c1c(=O)[nH]c(=O)n2C	22	1
O=C(c1cccc2cc[nH]c12)N1C[C@@H]2[C@H](C1)[C@H]1CC[C@@H]2O1	3	6
Cc1cc(OC(=O)c2ccccc2C(F)(F)F)c([N+](=O)[O-])c(=O)[nH]1	22	25
O=C(OCc1cc(-c2ccc3c(c2)OCCO3)on1)c1c[nH]c2ccccc12	-3	-2
CCn1c(=O)c2c(=O)cc(N)[nH]c2n(Cc2ccccc2)c1=O	0	0
Cc1ccc(N=Nc2c(-c3ccc([N+](=O)[O-])cc3)[nH]n(-c3ccccc3)c2=O)c(Br)c1	-20	-15
O=C(Nc1cccc(Cc2ccccc2)c1)Nc1cccc2[nH]c([C@H]3C[C@H](O)[C@@H](CO)O3)nc12	20	18
Cc1n[nH]c(C)c1Cc1nnc(SCC(=O)O)n1-c1ccccc1Cl	11	6

A portion of the library; count on the stated rates, not on these rows.
